# GIV Gai3 FP = GIV-Galpha-i interaction inhibition; P08753; Galpha-i3/FITC-GIV peptide fluorescence polarization, 90 min; hits give low values; scaled: aluminum fluoride 0%, vehicle 100%; percent of control (FP), % (no concentration beside the values); 210,000 compounds, 0.42% hits;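 active = replicate mean at 85% of control or lower, very high polarization wells dropped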;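 also: wells of about 15 µL received 100 nL stock; the first replicate is given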
# Target sequence (P08753 whole entry, looked up): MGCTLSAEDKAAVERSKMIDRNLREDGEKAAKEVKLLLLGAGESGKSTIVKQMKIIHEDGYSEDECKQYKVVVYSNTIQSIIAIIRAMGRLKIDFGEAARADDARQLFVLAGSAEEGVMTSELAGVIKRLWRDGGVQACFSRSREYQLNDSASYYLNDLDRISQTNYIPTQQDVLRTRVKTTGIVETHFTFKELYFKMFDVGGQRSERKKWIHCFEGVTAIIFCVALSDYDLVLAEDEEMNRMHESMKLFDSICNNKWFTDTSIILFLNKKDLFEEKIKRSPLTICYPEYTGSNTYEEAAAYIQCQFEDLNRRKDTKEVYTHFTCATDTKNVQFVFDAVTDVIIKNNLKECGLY
# HCMV UL50-53 inh = inhibitors of HCMV UL50-UL53 nuclear egress complex interaction; AID 1918969; HTRF UL50-UL53 interaction, normalized percent inhibition; 190,000 compounds, 0.15% hits; inhibition, % (test concentration not listed);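 active = both replicates at 50% or more, plus weaker picks with an unusually low signal ratio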;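 also: stock transfer was 100 nL into about 20 µL; 0% = negative control wells and 100% = wells with untagged competitor protein; inactives centre near -12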
# Sa growth inh = blocks Staphylococcus aureus growth; S. aureus RN4220 growth, OD600, 20 h, 42 °C; hits give low values; relative growth, % (no concentration beside the values); 170,000 compounds, 0.53% hits; AID 720641;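 active = growth at 42 °C up to 50% and 20 or more points under that at 30 °C, or under 10% at both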;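 also: 300 nL library stock went into each well; scaled to the means of positive and negative controls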
# Sa growth inh second temp = recorded beside Sa growth inh, whose call it bears; relative growth, %; measured here: growth at 30 °C;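 optical density after 20 h as mean of two plates; 100% = untreated growth and lower means inhibition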
# Numbers without * were called inactive; / = not tested or not shown. An unsorted share of the library. Share with any hit: about 0.82%.
SMILES,GIV Gai3 FP,HCMV UL50-53 inh,Sa growth inh,Sa growth inh second temp
COc1ccc(-c2nn(CCCC(=O)N3CCN(c4cccc(C)c4C)CC3)c(=O)c3noc(C)c23)cc1,102,21,/,/
Cc1c(Br)sc2sc(-c3nn(C)cc3Br)c(C)c12,99,-45,98,88
COc1cccc(C2C3=C(CC(C)(C)CC3=O)OC3=C2C(=O)CC(C)(C)C3)c1OC,/,1,113,90
C=CCc1cc(/C=C2\Sc3ccccc3C2=O)cc(OCC)c1O,118,-10,/,/
O=C(/C=C/c1cc(Cl)c2c(c1)OCO2)N(Cc1ccco1)Cc1cccs1,/,-25,62,94
Cc1cc(C)c(S(=O)(=O)N2CCN(C)c3ccccc32)c(C)c1,113,-7,/,/
CCOC(=O)C12CC1/C(=N/O)c1ccccc1O2 (centres undefined),98,-12,/,/
Cc1ccc(Cl)cc1NC(=O)C(NS(=O)(=O)c1cccc2nsnc12)c1ccccc1 (centres undefined),106,-92,100,72
CC1CN(S(=O)(=O)c2ccc(C(=O)O)cc2)CC(C)O1 (centres undefined),99,/,117,97
Cc1ccc(S(=O)(=O)n2c(C)cc(C(=O)O)c2C)cc1,104,/,113,87
COc1ccc(C)cc1NC(=S)NC12CN3CN(CN(C3)C1)C2,100,/,107,81
Cc1oc2c(c1C(=O)NCCC(C)C)C(=O)c1ccccc1C2=O,108,/,17,1
O=C(Sc1nc2ccccc2o1)N1c2ccccc2Sc2ccccc21,100,-16,85,85
CC(c1ccccc1)c1nnc(NC(=O)c2ccc3c(c2)OCO3)s1 (centres undefined),104,0,93,95
O=C(Nc1ccc(Cl)cc1)c1ccn[nH]1,/,-18,93,76
CC(C)N=C(N)CCn1cnc2c1c(=O)n(C)c(=O)n2C,110,-7,106,96
CCOC(=O)c1[nH]c(C)c(S(=O)(=O)NCc2ccccn2)c1C,110,-32,/,/
Cc1ccc(C(=O)NCc2csc(-c3cccs3)n2)cc1C,103,-3,91,88
COc1ccc(C2CC(=O)c3c([nH]c(C(=O)OC4CCC(C)CC4)c3C)C2)cc1OC (centres undefined),108,-5,103,92
Cn1ccc2c(OCC(=O)c3ccccc3)cccc2c1=O,105,-7,102,95
CC(=O)Nc1ccc(NC(=O)Nc2ccccc2)cc1,102,-23,96,88
CCOC(=O)CC1(c2ccccc2)SC(NC(C)=O)=NN1C(C)=O (centres undefined),103,-3,94,91
CN(Cc1cccs1)c1cc(=O)n2cc(Cl)ccc2n1,/,-81,78,78
C=CCNC(=O)CN1CCC(O)(c2ccccc2F)CC1,100,2,101,97
Cc1ccc2oc(C(=O)N3CCC(CCN4CCCCC4)CC3)cc(=O)c2c1,100,-22,/,/
# More records:
SMILES,GIV Gai3 FP,HCMV UL50-53 inh,Sa growth inh,Sa growth inh second temp
O=C(COc1cc(-c2ccccc2)nc2ccccc12)Nc1ccc(Cl)cc1,108,0,/,/
CC1CC(C)(C)N(C=O)c2ccccc21 (centres undefined),96,-5,120,112
COc1c(C(=O)O)csc1Cl,105,-24,99,87
CC(C)CC(=O)NC1(C(F)(F)F)N=C2SCCN2C1=O (centres undefined),113,5,107,109
O=C(Nc1cccnc1)C1c2ccccc2Oc2ccccc21,96,/,99,74
Cc1cccc(-c2nc3c4ccccc4n(CC(=O)Nc4cccc(F)c4)c(=O)n3n2)c1,98,/,132,89
O=C(CN1C(=O)C2C3C=CC(C3)C2C1=O)NCC1(N2CCCCC2)CCCCC1 (centres undefined),/,2,95,90
OC1(c2ccccc2)C/C(=N\n2cnnc2)C=C1c1ccccc1 (centres undefined),/,-38,98,78
COc1ccc(NC2=NCCCCC2)nc1,/,-18,96,95
Cc1ccc(-c2nn(-c3ccccc3)cc2/C=C(\C#N)C(=O)Nc2ccc(SC(F)F)cc2)o1,/,-35,107,94
COc1ccc(C2CC(=O)N(Cc3ccc(F)cc3)c3ccccc3S2)cc1 (centres undefined),104,-22,90,84
O=C(CSCc1ccccc1)Nc1cc(=O)[nH]c(=O)[nH]1,94,-12,96,83
CCOc1cccc2cc(C(=O)NCc3ccccc3)c(=N)oc12,103,-51,104,80
CCCCOc1ccc(NC(=O)c2cc(=O)c3cc(C)cc(C)c3o2)c2cccnc12,101,-18,/,/
CC(=O)Nc1ccccc1OC(C)C(=O)N1CC(C)CC(C)C1 (centres undefined),/,8,89,95
O=C(C1CCN(c2nc3ccccc3n3cccc23)CC1)N1CCc2ccccc2C1,107,8,/,/
Cc1ncc(CO)c2c1Oc1nc(-c3ccccc3)nc(SCC(=O)N3CCCCC3)c1C2,101,/,122,102
O=C(NCC1CC1)c1cc(Br)cc(Br)c1O,103,8,50,14
CC(C)(C)c1ccc(-c2nnco2)cc1,100,-29,101,89
OC(CN1CCCCC1)c1ccc2cc[nH]c2c1 (centres undefined),105,1,118,92
CC1=NN(c2ccccc2)C(=O)/C1=C/c1coc2ccccc2c1=O,108,-8,100,92
COc1ccccc1NC(=O)NCCn1c(C(F)(F)F)nc2cccnc21,114,-3,/,/
CCn1c(SC)nnc1C1CCCN(C2CCC(C)CC2)C1 (centres undefined),102,36,105,82
C/C(=N\OCC(=O)Nc1cc(C)on1)c1cccs1,/,7,109,93
CN(C1CC2C=CC1C2)S(=O)(=O)c1cc(C(F)(F)F)cc(C(F)(F)F)c1 (centres undefined),104,-7,109,94

# Taken from above, six compounds:
SMILES,GIV Gai3 FP,HCMV UL50-53 inh,Sa growth inh,Sa growth inh second temp
O=C(COc1cc(-c2ccccc2)nc2ccccc12)Nc1ccc(Cl)cc1,108,0,/,/
CC1CC(C)(C)N(C=O)c2ccccc21 (centres undefined),96,-5,120,112
COc1c(C(=O)O)csc1Cl,105,-24,99,87
CC(C)CC(=O)NC1(C(F)(F)F)N=C2SCCN2C1=O (centres undefined),113,5,107,109
O=C(Nc1cccnc1)C1c2ccccc2Oc2ccccc21,96,/,99,74
Cc1cccc(-c2nc3c4ccccc4n(CC(=O)Nc4cccc(F)c4)c(=O)n3n2)c1,98,/,132,89

# Further entries:
SMILES,GIV Gai3 FP,HCMV UL50-53 inh,Sa growth inh,Sa growth inh second temp
CCC(=O)OCn1nnc2ccccc2c1=O,102,-23,93,82
COc1ccc2ncc(C(=O)c3ccccc3)c(N3CCCCC3)c2c1,100,/,60,45
Cc1ccc(CCNC(=O)c2c[nH]c3ccc(S(=O)(=O)Nc4ccc(C)cc4C)cc3c2=O)cc1,109,/,130,82
O=C(OCC1CCCO1)c1ccc2c(c1)N(Cc1ccccc1)C(=O)c1ccccc1S2 (centres undefined),100,-12,/,/
COc1cc(/C=C/C(=O)NC2CCCCC2)cc(S(=O)(=O)NCc2ccco2)c1OC,/,13,116,100
O=c1oc2ccccc2cc1-c1nc(-c2cccnc2)no1,106,-87,99,89
O=c1c(Cc2ccccc2)coc2ccccc12,99,-16,102,84
Cc1ccc(CNC(=O)CCS(=O)(=O)c2cc(Br)cc3c2N(C(=O)C2CC2)CC3)cc1,101,7,99,106
COc1cc2c(cc1OC)CN([C@H]1CS(=O)(=O)C[C@@H]1S(=O)(=O)c1ccccc1)CC2,102,-20,/,/
Cc1ccc(-c2csc3nc(CN(C)C4CCN(C)CC4)[nH]c(=O)c23)cc1,/,-22,101,91
Cc1sc2nc(C(C)Sc3nnc(CN4CCCC4)n3Cc3ccccc3)[nH]c(=O)c2c1C (centres undefined),/,-7,97,108
CCCSc1nnc2c(n1)OC(c1ccc(Cl)cc1)Nc1ccccc1-2 (centres undefined),86,-10,/,/
CCS(=O)(=O)c1ccc(-c2cccc(NC(=O)c3ccc(C)cc3)c2)nn1,99,-24,/,/
CCOC(=O)c1[nH]c(C)c(C(=O)OCCOc2cccc(C)c2)c1C,/,-5,126,105
c1ccc(C2=Nc3ccccc3N=C(c3ccccc3)C2)cc1,102,-17,92,91
O=C(OCC(=O)N1CCCC1)c1cccc(Br)c1,/,-32,91,87
CN1C(C(=O)NC(C)(C)C)=CC(c2ccc3c(c2)OCO3)=NS1(=O)=O,106,-58,130,88
CCOc1ccc(C2Nn3c(CC)nnc3SC2C(=O)Nc2ccc(C)cc2C)cc1 (centres undefined),106,12,/,/
O=C(Nc1nnc(S(=O)(=O)N2CCN(c3ccc(F)cc3)CC2)s1)c1ccc(Cl)cc1,103,-4,69,87
Cc1noc(C)c1COc1cccc(C(=O)N2CCc3ccccc32)c1,/,-26,105,95
COCCc1nn2c(=O)cc(COC(=O)c3ccc(Br)cc3)nc2s1,100,/,100,100
Cc1ccc2c(c1)c1cccc3c1n2CCN3CCC(N)=O,/,2,116,90
CC(C)(C)Cc1nc(C2(c3ccc(Cl)cc3Cl)CC2)no1,98,-52,103,97
Cc1ccccc1-c1nccc2ccccc12,/,-18,96,82
CN(Cc1cc(=O)[nH]c2ccccc12)C(=O)Nc1cccc(Cl)c1,99,-16,/,/
# More structures.
SMILES,GIV Gai3 FP,HCMV UL50-53 inh,Sa growth inh,Sa growth inh second temp
O=C(Cn1c(CCCO)nc2ccccc21)N1CCc2ccccc21,/,-25,90,96
CCNC(=O)c1c(O)c2ccccc2n(CC)c1=O,105,-14,108,79
CN1/C(=C/C2CC(=O)NC2=O)C(C)(C)c2ccccc21 (centres undefined),119,-26,97,70
CC1CCCC(C)N1C(=O)c1cc(-c2ccc(F)cc2)on1 (centres undefined),102,-11,118,91
CCCCCC(=O)N1CCN(CCn2c(C)c3c(=O)n(-c4nc5ccccc5s4)[nH]c3cc2=O)CC1,103,-66,89,72
O=C1CC(c2c[nH]c3ccccc23)C(=O)N1c1ccccc1O (centres undefined),115,5,97,90
CC1CCc2cc(F)ccc2N1C(=O)CCN1C(=O)c2ccccc2S1(=O)=O (centres undefined),107,8,124,107
Cc1ccccc1N1C=NC(=O)/C1=C\c1cccs1,108,0,92,98
COc1ccccc1N1CCN(c2ncnc3onc(-c4cccc(Cl)c4)c23)CC1,100,-22,110,93
COc1ccccc1CNCC(O)Cn1c2ccccc2c2ccccc21 (centres undefined),/,-20,49,17
CCn1cc(C(=O)OCC(=O)NCc2ccco2)c(=O)c2ccc(C)nc21,/,-7,76,92
O=S1(=O)C[C@H](NC2CCCCCC2)[C@@H](S(=O)(=O)c2ccc(F)cc2)C1,105,5,/,/
O=C(COC(=O)c1cc(C(F)(F)F)cc(C(F)(F)F)c1)NC1CC1,/,-34,106,88
COc1ccccc1NC(=O)CCNS(=O)(=O)c1ccc2c(c1)CCN2C(=O)C1CC1,105,/,80,94
CC1CC(NS(=O)(=O)c2cccs2)CC(C)(C)C1 (centres undefined),103,7,125,104
Cc1oc(-c2ccccc2F)nc1Cn1c(SCc2ccccc2F)nc2ccncc21,106,-18,101,84
CCN(CC)C(=O)C1CCCN(Cc2cc(Br)c(O)c(OC)c2)C1 (centres undefined),99,-2,103,101
CCOc1ccc(-n2c(=O)c3c(C)c(C)sc3n(CC(=O)c3ccccc3)c2=O)cc1,111,20,100,117
COc1ccc(S(=O)(=O)NCc2cccn2Cc2ccc(Cl)cc2)cc1,105,-25,91,91
COC(=O)c1cc2occc2n1CC(=O)Nc1ccccc1OC,105,3,107,93
NS(=O)(=O)c1ccc(Nc2nncc(=O)[nH]2)cc1,102,-3,87,92
O=S(=O)(/C=C/c1ccccc1)Nc1cc(Cl)ccc1-n1cncn1,/,-1,133,52
Cc1ccc(C)c(N2CCN(C(=O)Cn3ncc4c(=O)oc5ccc(C)cc5c43)CC2)c1,113,-22,115,86
CCc1ccc(/C(N)=N/O)cc1,/,-29,74,83
CCOC(=O)COc1ccc2c(c1)C(=O)CC1(CCCCC1)O2,102,-14,113,102

# Reprinted from the part before: five compounds; new compounds follow.
SMILES,GIV Gai3 FP,HCMV UL50-53 inh,Sa growth inh,Sa growth inh second temp
NS(=O)(=O)c1ccc(Nc2nncc(=O)[nH]2)cc1,102,-3,87,92
O=S(=O)(/C=C/c1ccccc1)Nc1cc(Cl)ccc1-n1cncn1,/,-1,133,52
Cc1ccc(C)c(N2CCN(C(=O)Cn3ncc4c(=O)oc5ccc(C)cc5c43)CC2)c1,113,-22,115,86
CCc1ccc(/C(N)=N/O)cc1,/,-29,74,83
CCOC(=O)COc1ccc2c(c1)C(=O)CC1(CCCCC1)O2,102,-14,113,102
COC(=O)CSc1nc(-c2cccs2)ccc1C#N,/,-28,69,100
COc1cccc(-c2nc(CS(=O)(=O)CC(=O)NCCCN3CCN(C)CC3)c(C)o2)c1,105,-11,104,94
COc1ccc(OC)c(C2CC(c3ccc(C)cc3)=NN2C(=O)CCCC(=O)O)c1 (centres undefined),105,-15,/,/
O=C(Nc1cc(C(F)(F)F)ccc1Cl)C1COc2ccccc2O1 (centres undefined),103,-2,/,/
Oc1c(CN2CCN(c3ncccn3)CC2)cc(Cl)c2ccccc12,/,-19,85,94
CCC(=O)N1CCc2cc(S(=O)(=O)NC(CC(C)C)C(=O)Nc3ccc(CC)cc3)ccc21 (centres undefined),104,5,110,100
CCOC(=O)N1CCN(C(=O)c2cn(-c3ccc(OCC)cc3)c(=O)c3cc(OC)c(OC)cc23)CC1,99,4,100,93
Cc1ccc(CNC(=O)CCc2c(C)nc3c(c(C)nn3-c3ccccc3)c2C)cc1,101,-2,96,83
